Cruzain Triton: qHTS Assay for Promiscuous and Specific Inhibitors of Cruzain (with detergent); hit rate 0.43% among 200,000; AID 1478, 2009; Cruzipain (Trypanosoma cruzi), P25779; purified cruzain, Z-FR-AMC fluorescence, 0.01% Triton; Potency, µM, for the others: max response, negative = inhibition, actives largely listed as inhibitors;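 note: plate controls were neutral wells for no effect and buffer without enzyme for full effect; nearly all actives have a fitted effect of over 40% in size; top concentration of the series not given in the record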
Target sequence (P25779 123-467 limits assumed): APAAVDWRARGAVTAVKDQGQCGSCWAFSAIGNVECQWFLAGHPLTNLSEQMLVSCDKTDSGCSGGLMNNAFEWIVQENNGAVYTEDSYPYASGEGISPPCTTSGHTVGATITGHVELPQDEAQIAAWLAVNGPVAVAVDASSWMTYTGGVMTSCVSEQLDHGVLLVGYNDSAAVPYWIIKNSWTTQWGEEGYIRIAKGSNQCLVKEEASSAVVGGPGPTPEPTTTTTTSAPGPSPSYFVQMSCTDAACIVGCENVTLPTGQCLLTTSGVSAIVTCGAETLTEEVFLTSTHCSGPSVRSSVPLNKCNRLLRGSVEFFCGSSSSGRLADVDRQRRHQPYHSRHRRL
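Enzyme 1.5 nM, Z-FR-AMC 2 uM, NaOAc 100 mM pH 5.5, DTT 5 mM, Triton X-100 0.01%; 15 min RT compound preincubation; kinetic ex360/em450, 60 s delta.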
LASV entry inh: qHTS for Inhibitors of binding or entry into cells for Lassa Virus. Lassa virus pseudotype entry inhibition, cell reporter; control for the full effect not named in the record. AID 540256, 2011. Potency, µM (highest dose often 37.9 µM), for the others: top-dose activity change, negative = inhibition, actives largely listed as inhibitors. hit rate 1.2% among 300,000; active means well fitted inhibition curve with a large enough effect; inconclusive means small, poorly fitted or top-dose-only effect, or effect the other way; inactive means flat fitted curve, though single readings scatter; tested in HEK293 cells; note: % is set by controls: 0 for no effect and ±100 for the full control effect; nearly all actives have a fitted effect of over 50% in size; luciferase read-out
SARS PLP yeast: qHTS of Yeast-based Assay for SARS-CoV PLP | hit rate 0.19% among 330,000 | Potency, µM (top dose mostly 32.9 µM), without a hit: at the highest dose activity, positive = growth rescue | S. cerevisiae expressing SARS-CoV PLpro, growth rescue; control for the full effect not named in the record; active means well fitted rising curve with a large enough effect; inconclusive means small, poorly fitted or top-dose-only effect; inactive means no such curve, though single readings can be large or run the other way; note: 0% is about no effect; nearly all actives have a fitted effect of over 55% in size; growth read by luminescence after 48 h
MARV entry inh: qHTS for inhibitors of binding or entry into cells for Marburg Virus. Marburg virus pseudotyped entry inhibition, cell reporter; control for the full effect not named in the record; about a third of the inactives were read at about 46 µM. AID 540276, 2011. Potency, µM (doses to about 37.8 µM), for the others: top-dose activity change, negative = inhibition, actives largely listed as inhibitors. hit rate 1.8% among 300,000; active = well fitted inhibition curve with a large enough effect; inconclusive = small, poorly fitted or top-dose-only effect, or effect the other way; inactive = flat fitted curve, though single readings scatter; tested in HEK293 cells; about a fifth of its hits are not listed in these tables; note: % is set by controls: 0 for no effect and ±100 for the full control effect; luciferase read-out
NS1 inh: qHTS Assay for Inhibitors of Influenza NS1 Protein Function; hit rate 0.4% among 270,000; Potency, µM (doses to about 46.1 µM), for inactives: at the top dose activity, positive = more growth; S. cerevisiae slowed by influenza A NS1, growth recovery by OD600; active means well fitted rising curve with a large enough effect; inconclusive means small, poorly fitted or top-dose-only effect; inactive means no such curve, though single readings can be large or run the other way; note: nearly all actives have a fitted effect of over 50% in size
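Growth recovery, yeast-based: influenza A NS1 expressed in S. cerevisiae causes slow growth, and suppressors are detected by OD600. The parent strain without NS1 is used as positive control.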
Cruzain inh noDet: qHTS Assay for Promiscuous and Specific Inhibitors of Cruzain (without detergent). Potency, µM, for the others: max response, negative = inhibition, hits mostly inhibitors. purified cruzain, Z-FR-AMC fluorescence, no detergent. Cruzipain (Trypanosoma cruzi), P25779. hit rate 2.3% among 200,000. AID 1476, 2009;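 note: plate controls were enzyme without inhibitor for no effect and buffer without enzyme for full effect; nearly all actives have a fitted effect of over 40% in size; top concentration of the series not given in the record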
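Purified cruzain at 1.5 nM, pre-incubated 15 min with compound at room temperature in 100 mM sodium acetate pH 5.5, 5 mM DTT, 0.00005% Triton X-100. Reaction started with 2 uM Z-FR-AMC; AMC fluorescence increase over 60 s gives rate.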
Starred values were filed as active, the others as inactive; ? = inconclusive; · = not tested or not shown; & = joins results of further samples; [ ] = dose if it differs, or a comment. Unless noted, calls come from the whole dose curve; as a rule, active = well fitted curve in the direction sought with a large enough effect; inconclusive = small, poorly fitted or top-dose-only effect, or another doubt; inactive = no such curve, though single readings can be large; an effect the other way counts as inactive or inconclusive. Potency is the fitted concentration of half-maximal effect. Only part of the results is shown; rates above refer to the full screens.

Order of results – Cruzain inh noDet | NS1 inh | MARV entry inh | SARS PLP yeast | LASV entry inh | Cruzain Triton
Cc1ccccc1Nc1oc(-c2ccccc2)nc1-c1cccc2ccccc12
    -18.6% | · | 6.9%&6.9%[14.2 µM] | · | · | -1.9%
CC1(OC(=O)CCc2ccccc2)C(=O)C=C2C=C(C3CC3)OC=C2C1=O (configuration not stated)
    -3.7% | · | ? | · | · | -2.1%
C=CCOC(=O)[C@H](O)[C@@H](O)C(=O)OCC=C
    -7.3% | · | -3.2%&-3.2%[14.2 µM] | · | · | 0.0%
COC(=O)[C@H](Cc1ccccc1)NC(=O)O[C@@H]1C(=O)c2cc(Br)ccc2O[C@H]1c1ccc2c(c1)OCO2
    -26.8% | · | 0.4%&0.4%&0.4%[14.2 µM] | · | · | -0.8%
CC1(OC(=O)c2ccco2)C(=O)C=C2C=C(c3ccsc3)OC=C2C1=O (configuration not stated)
    -1.8% | · | 7.6%&7.6%[14.2 µM] | · | · | -5.9%
CC(C)(C)OC(=O)NCCCC1=CC2=CC(=O)C(C)(O)C(=O)C2=CO1 (configuration not stated)
    19.0% | · | ? | · | · | 4.1%
CC1COc2ccccc2C1=O (configuration not stated)
    -12.7% | · | -6.3%&-6.3%[14.2 µM] | · | · | 3.0%
CCOC(=O)N/N=C/c1ccccc1-c1cc(OC)ccc1OC
    -6.0% | · | -4.0%[14.2 µM] | · | · | 0.5%
Cc1ccc(C(=O)c2ccc(C(F)(F)F)cc2)cc1
    · | · | 6.4% | -6.8% | · | ·
COc1cc2c(cc1OC)C1O[C@](c3ccsc3)(C2)Oc2cc(C)n(Cc3ccccc3)c(=O)c21
    · | 18.4% | -14.3%[14.2 µM] | -1.8%[6.58 µM] | · | ·
CC1=C(C(=O)OCC2CCCCC2)C(c2cccc(O)c2)NC(=O)N1 (configuration not stated)
    · | -0.4% | -2.9% | -0.5% | · | ·
COc1ccc([C@]23Cc4cc(C#N)ccc4C(O2)c2c(c4ccc(OC)cc4oc2=O)O3)cc1
    · | 6.1% | ? | -1.6%[6.58 µM] | · | ·
COc1cc2c(cc1OC)C1O[C@](c3ccsc3)(C2)OC2=C1C(=O)CC(C)(C)C2
    · | 1.2% | -12.1%[14.2 µM] | -7.2%[6.58 µM] | · | ·
COc1cc2c(cc1OC)C1O[C@](CCCCN3C(=O)c4ccccc4C3=O)(C2)Oc2cc(C)n(Cc3ccccc3)c(=O)c21
    · | 14.1% | -2.7%[14.2 µM] | 0.5%[6.58 µM] | · | ·
COc1ccc([C@]23Cc4cc(C#N)ccc4[C@H](O2)c2c(cc(C)n(Cc4ccccc4)c2=O)O3)cc1
    · | 21.8% | ? | 1.6%[6.58 µM] | · | ·
O=C1C2=C(C(=O)c3ccccc31)C1O[C@](CCCCN3C(=O)c4ccccc4C3=O)(Cc3c1ccc1ccccc31)O2
    · | 25.4% | ? | -3.4%[6.58 µM] | · | ·
COc1cc2c(cc1OC)C1O[C@](CCCCN3C(=O)c4ccccc4C3=O)(C2)Oc2c1c(=O)oc1ccc(F)cc21
    · | 29.8% | 2.4%[14.2 µM] | -3.2%[6.58 µM] | · | ·
C#CCN1C(=O)[C@]2(OC[C@@H]3Cc4ccccc4[C@@H]3C=C2C)c2ccccc21
    · | · | 2.7%[14.2 µM] | · | -18.5%[14.3 µM] | ·
COC(=O)[C@]12C[C@@H]3CCN(C(=O)N[C@@H]1c1ccccc1)[C@@]32C
    · | · | 75.7%[14.2 µM] | · | ? | ·
COC(=O)C1=C(C)N(CCc2cc(OC)c(OC)c(OC)c2)C(=O)NC1c1ccc(Br)cc1 (configuration not stated)
    · | · | 2.2%[14.2 µM] | · | -3.0%[14.3 µM] | ·
Cc1nc2n(c(=O)c1CCN1CCC(c3noc4cc(F)ccc34)CC1)CCCC2O (configuration not stated)
    · | · | -17.7% | · | 0.1% | ·
OC[C@H]1O[C@H](n2cnc3c(N[C@H]4CCC[C@@H]4O)ncnc32)[C@H](O)[C@@H]1O
    · | · | 2.4% | · | 9.2% | ·
NCC1OC(O[C@H]2[C@H](O)[C@@H](OC3C(O)C(N)CC(N)C3OC3OC(CO)C(O)C(O)C3N)O[C@@H]2CO)C(N)C(O)C1O (some centres not stated)
    · | · | 11.1% | · | 20.7% | ·
CC(=CC[Si](C)(C)C)CCC=O
    · | · | -25.1%[14.2 µM] | · | ? | ·
COC(=O)c1cc(C(=O)OC)n2ccc3cc(OC)c(OC)cc3c12
    · | · | ? | · | 21.2%[14.3 µM] | ·
COC(=O)C1=C(C)N(Cc2ccccc2)C(=NCc2cc(OC)c(OC)c(OC)c2)NC1c1cccc(F)c1 (configuration not stated)
    · | · | -16.7%[14.2 µM] | · | ? | ·
C=C(C#Cc1ccc(OC)cc1)CCN1C=C(C(=O)OCC)C(c2ccccc2)NC1=O (configuration not stated)
    · | · | 6.4%[14.2 µM] | · | ? | ·
O=C(NN=C1C[C@@H](O)[C@H](O)[C@H]2[C@@H]3C(=O)N(C[C@@H]4CCCO4)C(=O)[C@@H]3CC[C@H]12)OCc1ccccc1
    · | · | ? | · | 1.7%[14.3 µM] | ·
COC(=O)N1C(C=Cc2ccc3c(c2)OCO3)=Cc2ccccc2C1CC(C)=O (configuration not stated)
    · | · | -12.3%[14.2 µM] | · | ? | ·
O=C1[C@H]2[C@@H]3[C@@H](O)[C@H](O)CC(=NOCc4ccccc4)[C@H]3CC[C@H]2C(=O)N1C1CCCCC1
    · | · | -25.4%[14.2 µM] | · | ? | ·
CCCCCCC#C[C@@H]1C=C[C@H](OC(C)=O)[C@@H](COC(C)=O)O1
    · | · | ? | · | ? | ·
Oc1ccc(C(O)CNCCCCCCNCC(O)c2ccc(O)c(O)c2)cc1O (configuration not stated)
    · | · | ? | · | -4.9% | ·
CCN1C(=NCc2ccc3c(c2)OCO3)NC(CCc2ccccc2)C(C(=O)OC)=C1C (configuration not stated)
    · | · | -29.8%[14.2 µM] | · | ? | ·
C=CCN1c2ccccc2[C@]23CCC(=O)N(CCOC)C2=NC(C(=O)OC)=C(C(=O)OC)[C@H]13
    · | · | 12.9%&1.2%[14.2 µM] | · | ? | ·
COc1ccc(COC(=O)NN=C2C[C@@H](O)[C@@H](O)[C@@H]3[C@H]4C(=O)N(c5ccc(F)cc5F)C(=O)[C@@H]4CC[C@H]23)cc1
    · | · | ? | · | 2.81µM* | ·
C=C(C)CCN1C(=O)NC(c2ccccc2)C(C(C)=O)=C1C (configuration not stated)
    · | · | 7.2%[14.2 µM] | · | ? | ·
O=c1[nH]c(=O)n([C@H]2C[C@@H](O)[C@@H](CO)O2)cc1C=CBr
    · | · | 19.8% | · | 0.0% | ·
CC(C)=CCN1C(=O)[C@@]2(CC(C)=C[C@@H](COCc3ccccc3)O2)c2ccccc21
    · | · | 2.9%[14.2 µM] | · | ? | ·
COC(=O)C1=C[C@H]([C@@H](C)[C@H](OC)c2ccccc2Br)[C@H]2c3ccccc3O[C@@H]12
    · | · | ? | · | ? | ·
CC(C)CON=C1C[C@@H](O)[C@@H](O)[C@@H]2[C@H]3C(=O)N(C4CCCCC4)C(=O)[C@@H]3CC[C@H]12
    · | · | -13.9%[14.2 µM] | · | ? | ·
COCCN1C(=NCCc2cccnc2)NC(c2ccccc2)C(C(=O)OC)=C1C (configuration not stated)
    · | · | 53.9%[14.2 µM] | · | -21.2%[14.3 µM] | ·
COC1=C[C@@H](C(=O)N[C@H]2CCCC[C@H]2NC(C)=O)[C@@H](C)[C@H](c2ccccc2)CC1=O
    · | · | ? | · | 7.1%[14.3 µM] | ·
CCCNC(=O)OC[C@H]1O[C@H](CCON=Cc2ccc(C(=O)N3[C@H](C(=O)OC)CC[C@H](C)[C@@H]3c3ccc(C)cc3)cc2)C=C[C@H]1Oc1ccc(OC)cc1
    · | · | -28.4%[14.2 µM] | · | -24.1%[14.3 µM] | ·
N#CCCN
    · | · | 0.9%&0.9%&0.9% | · | ? | ·
COC(=O)[C@H]1[C@H](CCc2ccccc2)NC(=O)N(Cc2ccccc2)[C@H]1C
    · | · | -14.7%[14.2 µM] | · | ? | ·
C#CCOCC#CC[C@@]1(C(=O)OC)C=C[C@@H](C)[C@H](c2ccccc2Br)N1C(=O)C(F)(F)F
    · | · | ? | · | ? | ·
C#CCN1C(=O)C2(CC(C)=C[C@@H](C)O2)c2c(Br)cccc21 (some centres not stated)
    · | · | ? | · | ? | ·
COc1ccc(OC[C@@H]2CC3[C@@H](CC[C@@H](C)[C@H]3c3ccc(Br)cc3)C(=O)O2)cc1 (some centres not stated)
    · | · | -5.2%[14.2 µM] | · | ? | ·
C[C@H]1Cc2c(COc3ccccc3)nc3c(c2CO1)CN(C(=O)c1cccnc1)CC3
    · | · | 6.8%&6.8%[14.2 µM] | · | ? | ·
CCOC(=O)CCN1C(=O)[C@@H]2[C@H]3[C@H](O)[C@H](O)CC(=NOCc4ccccc4)[C@@H]3CC[C@H]2C1=O
    · | · | -7.2%[14.2 µM] | · | ? | ·
COC(=O)c1ccc(CN2C(=O)[C@@]3(CC(C)=CC[C@@H](COc4ccccc4)O3)c3c(Br)cccc32)cc1
    · | · | -28.4%[14.2 µM] | · | 7.3%[14.3 µM] | ·
C#CCN1C(=O)[C@]2(O[C@H](C)CC3=CCCC32)c2c(Br)cccc21 (some centres not stated)
    · | · | -15.3%[14.2 µM] | · | ? | ·
C=CC(=O)c1ccc(CCCCCC)cc1
    · | · | 10.5%&10.5% | · | ? | ·
COCOc1cc(OC)ccc1C(=O)C=Cc1ccc([N+](=O)[O-])cc1
    · | · | -18.9%[14.2 µM] | · | ? | ·
CC1=C[C@@H](C)OC2(C1)C(=O)N(Cc1ccc(Br)cc1)c1cccc(Br)c12 (some centres not stated)
    · | · | 4.2%[14.2 µM] | · | ? | ·
COC(=O)C1=C(C)N(Cc2ccccc2)C(=NCCc2c[nH]c3ccccc23)NC1c1cccc(F)c1 (configuration not stated)
    · | · | -16.8%[14.2 µM] | · | ? | ·
Clc1ccc(N2CCN(Cc3cc4ccccn4n3)CC2)cc1
    · | · | 10.1%&10.1% | · | ? | ·
COc1cc2c(c(OC)c1OC)[C@@]1(c3ccccc3)CCCCC[C@H]1[C@@H]2NC(=O)C(F)(F)F
    · | · | -12.8%[14.2 µM] | · | -28.8%[14.3 µM] | ·
CCCNC(=O)CC1OC(C2CCCCC2)Cc2ccccc21 (configuration not stated)
    · | · | -26.1%[14.2 µM] | · | ? | ·
CC1(C)O[C@H]2O[C@H]([C@H](O)CON=C3[C@H]4CCn5c(=O)n(-c6ccccc6)c(=O)n5[C@@H]4[C@H](O)[C@@H]4O[C@H]34)[C@H](O)[C@@H]2O1
    · | · | ? | · | ? | ·
CCN1C(N(C)CCOC)=NC(c2cccc(F)c2)C(C(=O)OC)=C1C (configuration not stated)
    · | · | -24.0%[14.2 µM] | · | ? | ·

Source: PubChem BioAssay (National Center for Advancing Translational Sciences (NCATS))
